High-throughput results: PubChem BioAssay, National Center for Advancing Translational Sciences (NCATS)
CtBP-E1A inh = inhibitors of CtBP/E1A interaction; AlphaScreen GST-E1A/His-CtBP binding, 1536-well; hits give low values; control for the full effect not named in the record; actives 0.49% (n = 340,000); activity change, % (concentration not given with the values); in the data active means activity change below about -65%; inconclusive means about -30% to -65%; inactive means above about -30%; further: on the % scale 0 is the no-effect control and ±100 the full control effect
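Protein mix (5X: 125 nM each GST-E1A, His-CtBP) was incubated with pinned compound 2 h at 37 deg C in dark, in 50 mM Tris pH 8.0 buffer with 300 mM NaCl. Glutathione donor and nickel acceptor beads followed; AlphaScreen signal read after 1 h.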
Sfp inh = Sfp phosphopantetheinyl transferase inhibition; Q9F4F7; Biochemical Sfp PPTase activity, qHTS; Potency, µM, for the others: max response, negative = inhibition, actives largely listed as inhibitors; actives 3.5% (n = 310,000); AID 1490; active means well fitted inhibition curve with a large enough effect; inconclusive means small, poorly fitted or top-dose-only effect, or another doubt; inactive means no such curve, though single readings can be large or run the other way;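 further: the enzyme is Sfp with the accession as filed and its product quenches rhodamine fluorescence; potency means the concentration at half of the fitted maximal effect; 0% = enzyme reaction without inhibitor and -100% = no enzyme wells; top concentration of the series not given in the record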
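Compounds were incubated with enzyme (final 15 nM) for 15 min at room temperature before substrate addition started the reaction. Fluorescence at 525 nm excitation, 598 nm emission was recorded immediately and after 30 minutes.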
PINK1 modulator = PINK1 expression modulation; PINK1 immunofluorescence, high-content cytometry, 24 h; Potency, µM (highest dose often 76.6 µM), for inactives: at the highest dose activation (PINK1 increase), most hits filed as activators; actives 0.2% (n = 410,000); AID 624263; active = well fitted activation curve with a large enough effect; inconclusive = small, poorly fitted or top-dose-only effect; inactive = flat fitted curve, though single readings scatter; cell line not stated here;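 further: potency means the concentration at half of the fitted maximal effect; % of control where 0% means no effect; nearly all actives have a fitted effect of over 65% in size; a mitochondrial uncoupler was the plate control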
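Stable cell line, 250 cells/well, 12 h attachment; compounds pinned at 5 concentrations, 24 h; CCCP control. Fixed with nuclear dye, primary antibodies 12 h at 10 degrees C, secondary plus cell stain; laser-scanning cytometer read.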
D2 ag = human D2 receptor agonism in beta-arrestin assay; DiscoveRx PathHunter D2 beta-arrestin, luminescence, 90 min; 100% = 57 uM dopamine signal; actives 0.084% (n = 360,000); activation, % (no concentration beside the values); P14416; in the data active = activation above about 40%; inconclusive = about 15% to 40%; inactive = below about 15%; further: compound concentration not given in the record; the text of the record calls up to 30% inactive
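Agonist mode: compounds alone added to overnight-plated D2 PathHunter cells for 90 min at 37 C, with 57 uM final dopamine (EC100) defining full response. Beta-arrestin recruitment detected by chemiluminescent reagent, read after 1 h at ambient temperature.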
D2 PAM = potentiates the human D2 dopamine receptor allosterically | potentiation, % (test concentration not listed) | actives 0.23% (n = 360,000) | DiscoveRx D2 beta-arrestin cells, luminescence, 90 min; 100% = 57 uM dopamine signal; active = potentiation of 50% or more; inconclusive = 30% to 50%; inactive = 30% or less;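 further: compound concentration not given in the record; tested on top of an EC20 dose of dopamine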
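PathHunter D2 cells, attached overnight at 37 deg C, received compound in DMSO plus dopamine at EC20 (50 nM final) for 90 min at 37 deg C. Beta-arrestin recruitment was read as luminescence after 1 h with detection reagent at ambient temperature.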
TRPV1 PAM = potentiators of human vanilloid receptor 1 (TRPV1). Q8NER1. TRPV1-expressing cells, Fluo-8 calcium influx, capsaicin EC20 potentiation; host cell line not named in the record; control for the full effect not named in the record. potentiation, % at 8.33 µM. actives 0.02% (n = 320,000). AID 540277; active means potentiation above 80%; inconclusive means 30% to 80%; inactive means below 30%; further: 0% is about no effect
Target sequence (Q8NER1 whole entry, looked up): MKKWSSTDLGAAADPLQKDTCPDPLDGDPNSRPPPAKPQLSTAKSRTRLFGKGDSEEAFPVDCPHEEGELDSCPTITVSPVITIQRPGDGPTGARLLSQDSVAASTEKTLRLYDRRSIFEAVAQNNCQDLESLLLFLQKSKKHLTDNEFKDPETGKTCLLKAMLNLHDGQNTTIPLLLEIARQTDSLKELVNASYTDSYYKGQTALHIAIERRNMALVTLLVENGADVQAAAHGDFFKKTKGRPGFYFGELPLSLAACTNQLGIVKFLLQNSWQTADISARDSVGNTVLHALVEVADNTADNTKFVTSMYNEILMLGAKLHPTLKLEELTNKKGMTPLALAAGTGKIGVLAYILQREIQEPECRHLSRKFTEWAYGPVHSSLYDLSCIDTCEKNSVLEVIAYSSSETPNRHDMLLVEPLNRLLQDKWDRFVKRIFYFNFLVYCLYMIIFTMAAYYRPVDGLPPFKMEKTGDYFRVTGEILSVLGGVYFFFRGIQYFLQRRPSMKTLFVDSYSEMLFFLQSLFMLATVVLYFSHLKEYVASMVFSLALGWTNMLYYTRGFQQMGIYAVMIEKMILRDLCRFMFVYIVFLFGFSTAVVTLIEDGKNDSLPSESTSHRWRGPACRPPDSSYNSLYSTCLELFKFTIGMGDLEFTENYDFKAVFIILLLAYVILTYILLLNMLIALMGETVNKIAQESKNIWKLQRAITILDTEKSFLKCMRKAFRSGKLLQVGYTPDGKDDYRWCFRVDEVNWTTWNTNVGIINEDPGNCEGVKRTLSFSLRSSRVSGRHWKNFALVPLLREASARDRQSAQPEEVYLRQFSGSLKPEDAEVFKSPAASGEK
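Fluo-8 calcium influx in TRPV1-expressing cells, kinetic read (ex 480/em 520 nm). Compound added and read 3 min for agonist activity, followed by capsaicin at EC20 final and 2 min further read for enhancement.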
Six1-Eya2 blk = blocks human Six1 binding to Eya2 | AlphaScreen GST-Six1/His-Eya2 binding, biochemical; hits give low values; control for the full effect not named in the record | actives 0.56% (n = 360,000) | activity change, % (no concentration beside the values) | Q15475+O00167; in the data active = activity change below about -65%; inconclusive = about -30% to -65%; inactive = above about -30%; further: on the % scale 0 is the no-effect control and ±100 the full control effect; compound concentration not given in the record
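AlphaScreen with GST-Six1 and His-Eya2 (5X mix: 250 nM and 500 nM), glutathione donor and nickel acceptor beads; buffer 50 mM Tris pH 8.0, 300 mM NaCl, 1 mM TCEP; 1 h at 37 C in the dark.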
* = called active by the depositor; ? = inconclusive; · = not tested or not shown; & = joins results of further samples; [ ] = remark or other dose. An unsorted share of the library; overall some 3.7% were active at least once.

Compound,CtBP-E1A inh,Sfp inh,PINK1 modulator,D2 ag,D2 PAM,TRPV1 PAM,Six1-Eya2 blk
CC(=O)N1CCc2cc(S(=O)(=O)CCC(=O)NCCc3ccc(C)cc3)ccc21,·,-3%,-0.9%,-0.4,-4,-2,2
CCCC1(C(=O)OC)NC(c2ccco2)C2C(=O)N(c3ccc(C)cc3)C(=O)C21 (stereo not given),-1,10%,1.4%,-3.6,-5,4,1
COc1cc(CNC(C)C23CC4CC(CC(C4)C2)C3)cc(OC)c1OC (stereo not given),0,15%,5.8%,-4.6,-8,0,9
CCNc1nc(NCC)n2c(SC(C(=O)Nc3cc(Cl)cc(Cl)c3)c3ccccc3)nnc2n1 (stereo not given),-1,?,1.1%,1.3,-15,11,4
O=C1CC(Sc2ncccc2C(=O)O)C(=O)N1 (stereo not given),-7,0%,0.9%,-3.8,6,-4,14
COc1ccc(NC(=O)c2cc(-c3ccco3)on2)c(OC)c1,-8,12%,13%,0.5,-1,?,-11
Brc1ccc(-c2nc(-c3cccnc3)no2)o1,1,-3%,0.5%,-1.2,1,6,-1
COc1ccc(CC(=O)Nc2ccc(/C(C)=N\NC(=O)c3ccc(Br)o3)cc2)cc1,10,0%,12%,7.1,-1,-7,-12
Cc1cc[n+](-c2[nH]c(=O)sc2/C=N/NC([S-])=Nc2ccccc2)cc1C,-20,-11%,4.6%,0.6,11,8,?
Cc1nc2c(ccc3nc(NC(=O)c4ccc5c(c4)OCCO5)sc32)s1,12,?,-2.3%[38.3 µM],-1.0,1,11,4&4
Cc1ccccc1/C=N/n1c(-c2cc(-c3ccccc3)n[nH]2)n[nH]c1=S,-13,56µM*,5.8%,-3.3,-10,3,8
CC12CCC(=O)N1C(C(=O)Nc1cc(Cl)ccc1N1CCOCC1)CS2 (stereo not given),0,16%,-0.2%,-0.6,7,-11,1
CC1=C(C)CC(C(=O)NNC(=O)c2csc(C)c2C)C(C(=O)O)C1 (stereo not given),7,16%,1.7%,0.8,-2,-6,10
CN1C(=O)N(C)C(c2cccc([N+](=O)[O-])c2)C2=C1CCCC2=O (stereo not given),2,-1%,-1.4%,-1.6,-2,1,7
CCCCC[n+]1cccc2c3ccccc3ccc21,13,17%,1.1%,-2.7,-1,12,5
CSCC[C@H](NC(=O)[C@@H]1Cc2c([nH]c3ccccc23)C2c3ccccc3C(=O)N21)C(=O)NCC1CCCO1 (stereo not given in full),-5,-1%,0.2%,-9.2,-34,1,-14
COc1ccccc1NC(=O)C/C(C)=N/NC(=O)C12CC3CC(CC(C3)C1)C2,0,2%,2.3%,-0.7,-5,-12,-1
O=C(NCc1ccccc1Cl)c1nnc(CS(=O)(=O)c2ccccc2)o1,4,5%,0.6%,-6.0,-1,-2,1
c1cc(-c2nnc3n2CCC3)[nH]n1,1,7%,-4.5%[38.3 µM],-0.5,-3,5,-1
Cc1ccnc(NS(=O)(=O)c2ccc(NC(=O)COc3ccccc3)cc2)n1,0,12%,3.5%,2.8,-1,-27,1
O=[N+]([O-])c1ccc(N/N=C\c2cccnc2)nc1,·,-2%,-0.4%,-0.4,-2,-11,0
Cc1ccc(S(=O)(=O)N2CCCCC2)cc1C(=O)c1nccn1C,3,9%,1.0%[38.3 µM],1.8,-2,-4,3
Cc1ccccc1C(=O)N/N=C1/SCC(=O)N1Cc1ccccc1,1,16%,-0.7%,0.4,3,2,2
Cc1cccc2sc(NC(=O)CN(C)S(=O)(=O)c3cccs3)nc12,0,-4%,-0.4%,2.2,17,0,0
Cc1ccc(CNC(=O)Cc2ccc(-n3c(=O)[nH]c4ccsc4c3=O)cc2)cc1,-9,4%,?,-3.1,7,6,7
COc1ccc(S(=O)(=O)Nc2ccc(Cc3ccncc3)cc2)cc1C,-3,-2%,0.5%,-3.4,-11,8,0
CCc1nc2ccc(C(=O)N(C)C(C)C)cn2c1N(CCC(C)C)CCN(C)C,4,·,-0.4%,-2.3,-9,·,6
Nc1cc(=O)[nH]c(N2CCN(c3ccccc3)CC2)n1,6,19%,13%,2.2,-10,4,11
CCOC(=O)N1CCN(C(=O)c2ccc(N(Cc3ccc(Cl)cc3)S(C)(=O)=O)cc2)CC1,-1,11%,0.0%,-1.1,-2,4,3
Cn1c(=O)c2c(O)c(Cc3ccccc3)c(=O)n(C)c2n(C)c1=O,0,12%,0.5%,-0.4,-13,-6,-9
S=C1NCCNC(=S)NCCOCCOCCN1,-3,27%,0.1%,-1.8,-6,17,5
O=C(COC(=O)c1ccco1)NC1CCCc2ccccc21 (stereo not given),·,·,1.3%,0.3,2,·,-6
COc1cc(=O)[nH]c(SC(C)C(=O)Nc2cc(C)on2)n1 (stereo not given),2,17%,-0.2%,-5.4,2,18,0
CCOc1ccc(NC(=O)C2CCN(S(=O)(=O)c3c(C)noc3C)CC2)cc1,-1,6%,4.0%,0.2,0,-20,4
Cc1cccc(Cn2c(C)c(C)c3cc(C(=O)NCCN4CCOCC4)ccc32)c1,-27,-2%,0.5%,-3.4,-24,-5,-22
CN(C)c1ccc(-c2n(C)c3ccccc3[n+]2C)cc1,13,14%,-3.3%[38.3 µM],-0.7,-8,-8,3

Molecules from the list above that have a nitro group on carbon (2):
Compound,CtBP-E1A inh,Sfp inh,PINK1 modulator,D2 ag,D2 PAM,TRPV1 PAM,Six1-Eya2 blk
CN1C(=O)N(C)C(c2cccc([N+](=O)[O-])c2)C2=C1CCCC2=O (stereo not given),2,-1%,-1.4%,-1.6,-2,1,7
O=[N+]([O-])c1ccc(N/N=C\c2cccnc2)nc1,·,-2%,-0.4%,-0.4,-2,-11,0

Going on with the list:
Compound,CtBP-E1A inh,Sfp inh,PINK1 modulator,D2 ag,D2 PAM,TRPV1 PAM,Six1-Eya2 blk
O=[N+]([O-])c1cccc(S(=O)(=O)Nc2ccc(-c3ccc(N4CCCC4)nn3)cc2)c1,-13,·,0.4%,5.6,4,-10,-20
c1ccc(-c2nccc(-c3ccc(-n4cnc5ccccc54)cc3)n2)nc1,-15,0%,-0.8%,-5.9,-7,5,-11
CCCCC(C(=O)NC1CCCC1)N(C(=O)c1snc(C(N)=O)c1N)c1ccc(OCC)cc1 (stereo not given),23,0%,-0.1%,-2.9,-5,2,2
COc1ccccc1NC(=S)N(Cc1ccco1)Cc1cc2cc(C)c(C)cc2[nH]c1=O,0,16%,5.8%,-4.3,3,-5,-13
CC1CC(C)CN(C(=O)c2cc3ccccc3o2)C1 (stereo not given),11,·,2.6%,-4.3,-4,-10,12
COc1ccc(NC(=O)CC2(CC(=O)O)CCCC2)cn1,-1,-5%,2.6%,-3.5,1,13,-20
O=C(C(c1ccccc1)C(O)(c1ccccc1)c1ccccc1)N1CCOCC1 (stereo not given),-4,·,-2.5%,-4.5,-4,·,6
CC(Sc1n[nH]c(N)n1)C(=O)Nc1cccc(S(=O)(=O)N2CCOCC2)c1 (stereo not given),·,11%,-0.1%,3.4,-2,0,-10
C=CCOc1ccc(C2/C(=C(/O)c3ccc(OC)cc3)C(=O)C(=O)N2CCN2CCNCC2)cc1 (stereo not given),5,11%,0.0%,1.1,3,6,0
CCOc1ccc2[nH]c(=O)c(CN(CCCN3CCOCC3)C(=O)Nc3ccc(F)cc3)cc2c1,9,·,-0.1%,-2.2,-3,·,1
O=c1nc(N2CCOCC2)ccn1Cc1ccc(Br)cc1,10,18%,6.9%[38.3 µM],0.2,3,-8,-2
COc1cc(/C=N/NC(=O)C(C)Nc2n[nH]c(=O)[nH]c2=O)cc(OC)c1O (stereo not given),1,-6%,-2.5%,-5.2,0,8,0
Oc1ccc(C(=S)N2CCCC2)cc1,·,20µM*,0.1%,-2.2,-4,-1,-4
COC(=O)c1ccc(COC(=O)CCc2nc(-c3ccccc3)c(-c3ccccc3)o2)cc1,31,16%,1.3%[38.3 µM],-2.4,-4,4,10
CCOC(=O)COn1c(=O)c(C)[n+]([O-])c2ccccc21,9,-3%,3.4%[38.3 µM],-1.6,11,6,-2
CCCCN1C(=O)/C(=C/C=C2/C=Cc3ccccc3N2CC)SC1=S,-27,20%,4.7%,2.6,-26,-1,-14
COc1ccc(NC(=O)C2CCCN(S(=O)(=O)c3cccc4nonc34)C2)cc1 (stereo not given),3,-22%,-0.6%[38.3 µM],0.1,1,-4,-2
COc1ccc(N2CCN(C(=O)Cn3c(=O)[nH]c4ccsc4c3=O)CC2)cc1,-6,-2%,-3.2%,-1.0,-7,23,1
CCn1c(=O)c(=O)[nH]c2cc(C(=O)Nc3ccc(S(=O)(=O)N4CCCC4)cc3)ccc21,-12,7%,-2.5%,0.2,-4,4,4
c1cncc(C2Nc3ccccc3-c3nc4ccccc4n32)c1 (stereo not given),?,14%,-5.7%[38.3 µM],-2.3,-12,-28,-24
COc1ccc(/C(C#N)=C/c2ccccn2)cc1,·,-6%,0.6%,4.2,-20,-18,7
COC(=O)[C@@H]1C[C@H]1[C@@H](NS(=O)(=O)c1ccccc1)c1ccccc1,·,3%&14%,-0.3%,0.9,-3,2,9
O=C(Nc1nnc(SCc2ccc(F)cc2)s1)C1=COCCO1,-2,·,0.8%,6.8,-1,7,2
CCOC(=O)c1cc(-c2ccc(C)cc2)n(CC(=O)NCc2ccco2)c1C,-1,1%,4.9%,1.3,-2,17,1
COc1cccc(-c2cc(C(=O)N3CCN(S(=O)(=O)c4ccccc4)CC3)[nH]n2)c1,0,17%,0.8%,-0.6,2,-7,-2
COc1ccccc1OCCNC(=O)c1c(-c2ccccc2Cl)noc1C,-1,8%,-1.1%,2.1,29,-11,-1
COc1ccc(C(=O)NN=C2CCCC2)cc1,·,-2%,0.2%,9.6,-7,6,-6
Cc1noc(C)c1COc1ccc(C(=O)O)cc1,3,5%,-0.5%,0.6,-7,9,2
COc1ccc(CCNC(=O)c2cc(-c3ccco3)nc3ccccc23)cc1,-4,·,-0.3%,3.9,-1,·,-8
COc1c(-c2ccc(O)cc2)oc2cc(O)cc(O)c2c1=O,-6,?,1.9%,-7.9,-4,-16,?
CCOC(=O)c1c(C)nsc1NC(=O)C1(C)CCN1C(=O)CC (stereo not given),9,·,1.0%,-0.9,-2,·,1
